# Source: PubChem BioAssay (National Center for Advancing Translational Sciences (NCATS))
# Cruzain noTriton – inhibitors of Trypanosoma cruzi cruzain without detergent; P25779; purified cruzain, Z-FR-AMC fluorescence, no detergent; Potency, µM, without a hit: max response, negative = inhibition, usual class: inhibitors; AID 1476; 200,000 tested, 2.3% active; active = well fitted curve in the direction sought with a large enough effect; inconclusive = small, poorly fitted or top-dose-only effect, or another doubt; inactive = no such curve, though single readings can be large; an effect the other way counts as inactive or inconclusive;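 note: plate controls were enzyme without inhibitor for no effect and buffer without enzyme for full effect; nearly all actives have a fitted effect of over 40% in size; top concentration of the series not given in the record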
# Target sequence (P25779 123-467 limits assumed): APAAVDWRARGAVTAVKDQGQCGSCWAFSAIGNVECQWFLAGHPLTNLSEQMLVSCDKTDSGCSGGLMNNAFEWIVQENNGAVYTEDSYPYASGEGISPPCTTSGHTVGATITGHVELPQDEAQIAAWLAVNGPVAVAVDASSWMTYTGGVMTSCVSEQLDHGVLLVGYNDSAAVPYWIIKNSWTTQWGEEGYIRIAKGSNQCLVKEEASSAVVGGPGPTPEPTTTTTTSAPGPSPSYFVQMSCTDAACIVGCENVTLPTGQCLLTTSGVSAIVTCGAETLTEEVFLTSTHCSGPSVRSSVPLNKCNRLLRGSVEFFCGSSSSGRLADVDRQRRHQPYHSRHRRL
#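 Detergent-free condition (0.00005% Triton X-100) in acetate buffer pH 5.5 with DTT. 1.5 nM enzyme and compound were pre-mixed 15 min, then 2 uM Z-FR-AMC substrate added; reaction progress from fluorescence change between first and third reads (60 s).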
# SARS PLP yeast – SARS-CoV PLP inhibition in yeast; S. cerevisiae expressing SARS-CoV PLpro, growth rescue; control for the full effect not named in the record; Potency, µM (titrated, usually from 32.9 µM), without a hit: top-dose activity, positive = growth rescue; 330,000 tested, 0.19% active; AID 485353; note: 0% is about no effect; nearly all actives have a fitted effect of over 55% in size; growth read by luminescence after 48 h
# Cruzain inh Det – cruzain (T. cruzi) inhibition with detergent; P25779; purified cruzain, Z-FR-AMC fluorescence, 0.01% Triton; Potency, µM, for the others: max response, negative = inhibition, most hits filed as inhibitors; 200,000 tested, 0.43% active; active = well fitted curve in the direction sought with a large enough effect; inconclusive = small, poorly fitted or top-dose-only effect, or another doubt; inactive = no such curve, though single readings can be large; an effect the other way counts as inactive or inconclusive;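 note: plate controls were neutral wells for no effect and buffer without enzyme for full effect; nearly all actives have a fitted effect of over 40% in size; top concentration of the series not given in the record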
#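 Z-FR-AMC hydrolysis (2 uM substrate) by cruzain (1.5 nM) monitored kinetically at ex 360/em 450 nm after 15 min room-temperature compound exposure; 0.01% Triton X-100, pH 5.5, 5 mM DTT.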
# NS1 function inh – influenza NS1 inhibition. S. cerevisiae slowed by influenza A NS1, growth recovery by OD600. Potency, µM (top dose mostly 46.1 µM), inactives show top-dose activity, positive = more growth. 270,000 tested, 0.4% active. AID 2326; note: actives are rising curves; nearly all actives have a fitted effect of over 50% in size
#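 OD600 was taken as the measure of yeast growth restored by compound in an NS1-expressing S. cerevisiae strain. Cells had been washed out of glucose medium and diluted 1:100 into galactose -URA medium, pH 6.0.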
# Lassa entry inh – inhibitors of Lassa virus binding or cell entry; Lassa virus pseudotype entry inhibition, cell reporter; control for the full effect not named in the record; 300,000 tested, 1.2% active; Potency, µM (top dose mostly 37.9 µM), for the others: at the top dose activity change, negative = inhibition, most hits filed as inhibitors; active means well fitted inhibition curve with a large enough effect; inconclusive means small, poorly fitted or top-dose-only effect, or effect the other way; inactive means flat fitted curve, though single readings scatter; tested in HEK293 cells; note: % is set by controls: 0 for no effect and ±100 for the full control effect; nearly all actives have a fitted effect of over 50% in size; luciferase read-out
# MARV entry inh – Marburg virus entry inhibition. AID 540276. 300,000 tested, 1.8% active. Marburg virus pseudotyped entry inhibition, cell reporter; control for the full effect not named in the record; about a third of the inactives were read at about 46 µM. Potency, µM (series often up to 37.8 µM), for the others: top-dose activity change, negative = inhibition, hits mostly inhibitors; active = well fitted inhibition curve with a large enough effect; inconclusive = small, poorly fitted or top-dose-only effect, or effect the other way; inactive = flat fitted curve, though single readings scatter; tested in HEK293 cells; about a fifth of its hits are not listed in these tables; note: % is set by controls: 0 for no effect and ±100 for the full control effect; luciferase read-out
# StopGo reporter – FMDV 2A StopGo reporter, luciferase signal; 410,000 tested, 1.2% active; Potency, µM (doses to about 57.9 µM), inactives show top-dose signal change, negative = less light; human cells with a luciferase reporter of 2A StopGo recoding; control for the full effect not named in the record; active = well fitted falling curve with a large enough effect; inconclusive = small, poorly fitted or top-dose-only effect; inactive = no such curve, though single readings can be large or run the other way; tested in HEK293T cells; note: % is set by controls: 0 for no effect and ±100 for the full control effect; nearly all actives have a fitted effect of over 45% in size; luciferase light after 4 h
# RE007 growth inh – less growth of the S. pombe RE007 Vpr strain; Potency, µM (titrated, usually from 92.2 µM), for inactives: at the top dose activity change, negative = less growth; AID 651644; S. pombe RE007 Vpr strain, BacTiter-Glo ATP luminescence, 24 h; control for the full effect not named in the record; 360,000 tested, 0.21% active; active = well fitted falling curve with a large enough effect; inconclusive = small, poorly fitted or top-dose-only effect; inactive = no such curve, though single readings can be large or run the other way;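 note: % is set by controls: 0 for no effect and ±100 for the full control effect; nearly all actives have a fitted effect of over 50% in size; the assay follows cell death caused by Vpr and the record does not say whether a fall means rescue or toxicity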
#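 Fission yeast strain RE007, carrying one chromosomally integrated HIV-1 vpr copy, was seeded at OD 0.01 in PMG+AL medium with 23 nL pinned compound. After 24 h at 30 °C and 99% humidity, viability was read by BacTiter-Glo luminescence.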
# * marks the source's active call; other numbers are inactive results; ? = inconclusive; . = not tested or not shown; [ ] = dose if it differs, or a comment. Unless noted, calls come from the whole dose curve; as a rule, active means well fitted rising curve with a large enough effect; inconclusive means small, poorly fitted or top-dose-only effect; inactive means no such curve, though single readings can be large or run the other way. Potency is the fitted concentration of half-maximal effect.
canonical_smiles	Cruzain noTriton	SARS PLP yeast	Cruzain inh Det	NS1 function inh	Lassa entry inh	MARV entry inh	StopGo reporter	RE007 growth inh
COc1ccc(Br)cc1C(=O)N/N=C/c1cccnc1	.	2%	.	-1%	14%[46.1 µM]	-3%[46.1 µM]	2%	6%
O=C(Nc1c(C(=O)N2CCOCC2)cnn1-c1ccccc1Cl)c1ccco1	-4%	0%	3.4%	9%	-17%[14.3 µM]	-7%	-20%	5%
COc1ccc(-c2cc3ccc(O)c(CN4CCCC(C)C4)c3oc2=O)cc1OC (stereo not given)	-5%	.	-0.4%	.	-2%[46.1 µM]	.	11%	.
CCN1CCN(CC(=O)c2ccc(C)cc2)CC1	.	0%	.	-5%	.	.	-11%	6%
O=C(CCc1nnc2n(Cc3ccccc3Cl)c(=O)c3ccccc3n12)Nc1ccc(F)cc1	10%	.	-1.0%	.	.	?	-17%	.
COc1cccc2cc(C(=O)N3CCC(C)CC3)c(=O)oc12	-12%	?	0.6%	?	.	.	-10%	16%
COC(=O)c1ccccc1N(C)C(=O)C12CCC(C)(C(=O)O1)C2(C)C (stereo not given)	4%	-4%	1.7%	-4%	4%	-21%	-23%	1%
N#C/C(=C\c1cccnc1)C(=O)Nc1cccc(Cl)c1	.	0%	.	.	20%	-2%	-16%	-15%
O=[N+]([O-])c1ccc(C=NNc2ccccc2)cc1	.	.	.	.	-15%	?	55%[activator]	89%
CC1CC(C)CN(CCCNS(=O)(=O)c2ccc3c(c2)CCN3C(=O)C2CC2)C1 (stereo not given)	.	9%	.	-7%	.	.	0%	1%
c1ccc2cc(CNCc3cccc4ccccc34)ccc2c1	.	-1%	.	-8%	?	0%	-7%	-25%
C/C(=N\NC(=O)c1ccco1)c1cc2ccccc2o1	4%	-11%	-7.9%	-18%	14%	10%	23%	-22%
CC1CCN(C(=S)NC2CCCCC2)CC1	-23%	-4%	-2.9%	-3%	27%	18%	28%	19%
Cc1ccc2c(c1)c1c3n2CCN(CC(O)CNC(C)C)C3CCC1 (stereo not given)	.	1%	.	2%	?	?	-9%	-3%
CCCC12CN3CC(C)(CN(C1)C3c1cn(CC)c3ccccc13)C2=O (stereo not given)	12%	.	-1.6%	.	-11%[46.1 µM]	1%[46.1 µM]	-20%	.
S=c1[nH]c(-c2ccccc2)cn1/N=C/c1cccs1	.	-1%	.	14%	9%[46.1 µM]	18%[46.1 µM]	?	-2%
CCn1c(CNc2ccc(Cl)cc2)nnc1SCc1ccc(Cl)cc1	-7%	-61%	-4.8%	-23%	?	?	-15%	33%
Cc1ccc(-n2ncc3c(NCCc4ccc(S(N)(=O)=O)cc4)ncnc32)cc1	-6%	.	-7.4%	.	22%[46.1 µM]	.	-21%	.
CCC(=O)Nc1ccccc1-c1nc2ccccc2n(C(CC)C(=O)Nc2cccc(C(C)=O)c2)c1=O (stereo not given)	2%	.	-1.6%	.	5%[46.1 µM]	1%[46.1 µM]	-9%	.
COC(=O)C1=C(N)Oc2cc(C)n(CC3CCCO3)c(=O)c2C1c1ccc(Cl)cc1 (stereo not given)	10%	2%	-0.7%	-60%	?	?	-37%	0%
COc1cccc(NC(=O)Cn2cnc3sc(C)c(S(=O)(=O)N4CCCCC4)c3c2=O)c1	-3%	5%	2.3%	-2%	?	?	-4%	0%
CCOC(=O)c1c(C)[nH]c(C(=O)COC(=O)COc2ccccc2C=O)c1C	-5%	-18%	-8.7%	2%	-3%	5%	2%	-4%
COc1ccc(-c2cc(C(F)F)n3ncc(C(=O)Nc4c(C)n(C)n(-c5ccccc5)c4=O)c3n2)cc1	.	0%	.	6%	24%	34%[46.1 µM]	-17%	8%
CS(=O)(=O)c1ccc2nc(NC(=O)Nc3ccc(Cl)cc3)sc2c1	?	8%	-2.7%	13%	-4%	-11%	-1%	7%

# Single records (already shown). Values in the order: Cruzain noTriton	SARS PLP yeast	Cruzain inh Det	NS1 function inh	Lassa entry inh	MARV entry inh	StopGo reporter	RE007 growth inh
# COc1ccc(-c2cc(C(F)F)n3ncc(C(=O)Nc4c(C)n(C)n(-c5ccccc5)c4=O)c3n2)cc1 as listed: .	0%	.	6%	24%	34%[46.1 µM]	-17%	8%
# CCn1c(CNc2ccc(Cl)cc2)nnc1SCc1ccc(Cl)cc1 as listed: -7%	-61%	-4.8%	-23%	?	?	-15%	33%
# COc1cccc(NC(=O)Cn2cnc3sc(C)c(S(=O)(=O)N4CCCCC4)c3c2=O)c1 as listed: -3%	5%	2.3%	-2%	?	?	-4%	0%

# Next part:
# Values run as follows: Cruzain noTriton, SARS PLP yeast, Cruzain inh Det, NS1 function inh, Lassa entry inh, MARV entry inh, StopGo reporter, RE007 growth inh
CC1CCN(c2ccc(-c3cccc(NS(=O)(=O)c4ccc(Cl)s4)c3)nn2)CC1
 : -28%, ., -5.4%, ., -23%[46.1 µM], ., 3%, .
C=CCN(CC=C)c1nc2ccccc2nc1C(C#N)C(=O)OCCOC (stereo not given)
 : ?, -2%, -7.3%, -56%, -12%, 9%, ?, 7%
Cc1cc(C(=O)OCC(=O)NC(C)c2ccc(F)cc2)c(C)o1 (stereo not given)
 : ., 4%, ., ., -2%, -18%, -6%, 5%
Cn1ccc2c([N+](=O)[O-])cccc2c1=O
 : ., -3%, ., ., -7%, 1%, -22%, -3%
CCCn1c(SCc2nc3ccccc3s2)n[nH]c1=O
 : ., -1%, ., ., -27%, 25%[46.1 µM], 55%[activator], 20%
COC(C[C@H]1O[C@@H]1[C@@H](O)COCc1ccccc1)OC
 : ., 2%, ., 0%, ., ., 5%, 14%
Clc1ccc(CSc2nnc([C@@H]3CCCN3)o2)cc1Cl
 : 9%, -8%, 3.3%, 9%, 0%, 2%, -5%, -11%
O=C(Nc1ccc(F)cc1)C1CCN(S(=O)(=O)c2ccc3c(c2)CCCN3C(=O)C2CCC2)CC1
 : 7%, ., -1.6%, ., ?, ., -3%, .
Cc1cc(C)cc(NS(=O)(=O)c2ccc(-c3cc(C)no3)cc2)c1
 : -1%, ., -12%, ., ?, ., 21%, .
CC(Oc1ccc(-c2ccccc2)cc1)C(=O)O (stereo not given)
 : -11%, 0%, 3.9%, 3%, 9%, -23%, 13%, 18%
Cc1ccccc1NC(=O)NC1CCCCC1C (stereo not given)
 : ., 0%, ., 6%, 3%, ?, 1%, 6%
Cc1cc(C)nc(NS(=O)(=O)c2ccc(NC(=S)NC(=O)C3CCCC3)cc2)n1
 : -3%, 12%, 0.2%, 4%, -9%, -9%, 125%[activator], -10%

# Fetched by structure from the entries so far (three):
# Values run as follows: Cruzain noTriton, SARS PLP yeast, Cruzain inh Det, NS1 function inh, Lassa entry inh, MARV entry inh, StopGo reporter, RE007 growth inh
O=C(Nc1ccc(F)cc1)C1CCN(S(=O)(=O)c2ccc3c(c2)CCCN3C(=O)C2CCC2)CC1
 : 7%, ., -1.6%, ., ?, ., -3%, .
CC1CCN(c2ccc(-c3cccc(NS(=O)(=O)c4ccc(Cl)s4)c3)nn2)CC1
 : -28%, ., -5.4%, ., -23%[46.1 µM], ., 3%, .
CC(Oc1ccc(-c2ccccc2)cc1)C(=O)O (stereo not given)
 : -11%, 0%, 3.9%, 3%, 9%, -23%, 13%, 18%
